VDR inh = blocks the human vitamin D receptor | P11473 | VDR-SRC2-3 peptide fluorescence polarization, 2 h | Potency, µM, for inactives: max response, negative = inhibition, usual class: inhibitors | actives 0.93% (n = 400,000) | AID 504847; active = well fitted inhibition curve with a large enough effect; inconclusive = small, poorly fitted or top-dose-only effect, or another doubt; inactive = no such curve, though single readings can be large or run the other way; note: series mostly up to about 120 µM
Target sequence (P11473 whole entry, looked up): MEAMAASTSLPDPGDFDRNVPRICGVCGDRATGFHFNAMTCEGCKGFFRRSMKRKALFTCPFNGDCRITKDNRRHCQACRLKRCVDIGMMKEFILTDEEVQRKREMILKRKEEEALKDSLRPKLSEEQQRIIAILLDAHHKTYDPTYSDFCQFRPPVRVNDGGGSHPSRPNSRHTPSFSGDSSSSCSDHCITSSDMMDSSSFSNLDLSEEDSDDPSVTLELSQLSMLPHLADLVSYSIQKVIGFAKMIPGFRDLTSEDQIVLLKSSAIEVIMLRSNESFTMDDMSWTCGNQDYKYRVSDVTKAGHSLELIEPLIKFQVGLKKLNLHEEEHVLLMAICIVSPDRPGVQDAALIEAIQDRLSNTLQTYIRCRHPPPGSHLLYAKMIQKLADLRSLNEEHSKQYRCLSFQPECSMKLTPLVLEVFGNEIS
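The screen uses fluorescence polarization to detect compounds that interfere with recruitment of the SRC2-3 coactivator peptide to VDR; plates are read after 2 h at room temperature.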
Numbers without * were called inactive; ? = inconclusive; & = joins results of further samples; [ ] = another dose, or the depositor's remark. % is set by controls: 0 for no effect and ±100 for the full control effect; potency is the fitted concentration of half-maximal effect.

smiles,VDR inh
O=C(COc1cccc(F)c1)N[C@@H](Cc1ccccc1)c1nc2ccccc2[nH]1,-2.2%
O=S(=O)(NCc1csc(-c2cccs2)n1)c1ccc(Cl)cc1,-11.8%
CC(NC(=O)c1cccs1)C(S)c1ccccc1 (centres undefined),-5.3%
COc1ccccc1Cn1[nH]nnc1=S,-14.8%
CCCCc1nc(NCCNC(=O)c2ccccc2)c(C#N)c2c1CSC(C)(C)C2,-7.1%
CCC(CC)C(=O)N1CCN(Cc2ccc3c(c2)OCO3)CC1,13.5%
Nc1nnc(N2CCCCC2)s1,-15.7%
Cc1nn(Cc2ccccc2)c(C)c1N,-12.3%
COc1cc(OC)c2c(-c3ccccc3)cc(C3CCCCC3)nc2c1,-9.2%
Cc1ccc(SCC(=O)NC(C)(C)C)cc1,0.5%
COc1ccc(/C=C/C(=O)N(Cc2ccccc2)c2ccccn2)cc1OC,-15.6%
C(=N\N1CCN(C2c3ccccc3-c3ccccc32)CC1)/c1cccs1,-3.6%
O=C(N/N=C/c1cccc([N+](=O)[O-])c1)C1CC(=O)N(c2ccc(Br)cc2)C1 (centres undefined),-2.9%
CC(=O)Nc1ccc(C(=O)NNC(=O)c2cccs2)cc1,1.8%
CC(C)c1nc2ccc(NC(=O)C34CC5CC(CC(C5)C3)C4)cc2[nH]1,-13.5%
O=C(CS(=O)(=O)c1c[nH]c2ccccc12)Nc1ccc(F)cc1,-12.0%
CCOc1ccc(C(=O)NC(=S)Nc2ccc(N3CCC(C)CC3)cc2)cc1[N+](=O)[O-],1.3%
COC(=O)c1cc(NC(=O)c2nn(C)c3c2COc2ccccc2-3)cc(C(=O)OC)c1,4.3%
CCc1ccc(-c2nc3cc(NC(=O)c4cc5ccccc5cc4OC)ccc3o2)cc1,-8.7%
Cc1ccccc1NC(=O)C1C2CCCCC21 (centres undefined),-12.9%
O=C(Cn1c(SCc2cccc(F)c2)nc2cccnc21)Nc1ccc(F)c(Cl)c1,-2.9%
CCN(CC(=O)Nc1ccc(OC)cc1)C(=O)c1ccc2c(=O)n3c(nc2c1)CCC3,-3.0%
CCC(C)[C@H](NC(=O)[C@@H]1CSC2c3ccccc3C(=O)N21)C(=O)NC1CCCC1 (some centres undefined),-5.2%
COc1ccc(CCN=C(N)NS(=O)(=O)c2ccc(C)cc2)cc1OC,0.5%
CCN(CC(=O)NCc1ccc(Cl)cc1)C(=O)c1ccc(C#N)cc1,-19.1%
CC(C)CC(NC(=O)CN)C(=O)NC(Cc1ccccc1)C(=O)O (centres undefined),14.4%
O=C(Nc1ccccc1Cl)c1ccn[nH]1,-5.1%
CC1CCN(Cc2nnc(-c3cccc(Br)c3)o2)CC1,4.0%
Cc1[nH]ncc1N=Cc1ccc([N+](=O)[O-])cc1,-13.9%
CNc1cc([N+](=O)[O-])ccc1OCc1ccccc1,21.0%
CCC(=O)Nc1ccc(CC)cc1-c1nc2ccccc2n(CC(=O)Nc2cccc(Cl)c2)c1=O,12.7%
Cc1ccccc1OCC(=O)Nc1nnc(S(=O)(=O)N2CCCCCC2)s1,10.5%
COc1ccccc1-c1nnc(SCC(=O)NCc2c(C)c(Cl)cc(C(C)C)c2O)o1,1.7%
CC(=O)Nc1ccc(C=NNC(=O)CCCC(=O)NN=Cc2ccc(NC(C)=O)cc2)cc1,-20.9%
COc1cc2c(cc1OC)C(C(=O)N1CCN(c3ccccn3)CC1)C(c1cccs1)N(C)C2=O (centres undefined),-20.0%
N/C(Cc1ccc([N+](=O)[O-])cc1)=N\OC(=O)c1ccccc1Br,-13.6%
CCOC(=O)CCCCC(=O)c1[nH]c(=O)[nH]c1CSc1nc(C)cc(C)n1,4.1%
COc1ccc2[nH]c(C)c(CCNC(=S)Nc3ccccc3OC)c2c1,-9.9%
Cc1onc(-c2c(Cl)cccc2Cl)c1C(=O)N[C@H]1C(=O)N2[C@H]1SC(C)(C)[C@H]2C(=O)O,-0.3%
CCC(C)NC(=O)Nc1ccc2c(c1)N(C)C(=O)c1ccccc1S2 (centres undefined),-1.1%
CNC(=S)N=Nc1c(O)[nH]c2ccccc12,-27.7%
CCOC(=O)c1nn(-c2ccc(Cl)cc2)c2nnc(Cc3ccc(C)cc3)c(=O)n12,-11.2%
Cc1cnc(N2C(=O)c3ccc([N+](=O)[O-])cc3C2=O)s1,3.2%
CCCn1c(=O)c(C(=O)NCc2ccc(OC)c(OC)c2)c(O)c2ccccc21,5.2%
CC(=O)c1ccc(NC(=O)CSc2nc(-c3ccccc3C)nc3c2c(=O)n(C)c(=O)n3C)cc1,14.7%
S=c1[nH]c(-c2ccccc2)cn1/N=C/c1ccncc1,-3.4%
COc1ccc(/C=N/NC(=O)c2cccc(NC(=O)c3ccccc3)c2)c(C(=O)O)c1OC,-10.9%
Cc1ccc2c(c1)N(CC(=O)NCC1CCCO1)C(=O)C(C(C)C)O2 (centres undefined),34.0%[activator]
Cc1ccc(NC(=O)Cn2c3ccc(F)cc3c3nc4n(c(=O)c32)CCS4)cc1F,-8.0%
COc1cc(NC(=O)COc2ccccc2[N+](=O)[O-])ccc1NC(=O)c1ccco1,5.9%

Additional entries:
smiles,VDR inh
CCCCn1c(SCC(=O)Nc2cc(C)on2)nc2cc(S(N)(=O)=O)ccc21,-1.8%
CC(NC(=O)C1CCN(c2nc3ccccc3nc2C(F)(F)F)CC1)c1ccccc1 (centres undefined),-1.3%
N#Cc1c[nH]n2c(NC3CCCC3)c(-c3ccc(Cl)cc3)nc12,11.7%
COc1ccccc1/C=N\Nc1cc(C)nc(-n2nc(C)cc2C)n1,4.3%
Cc1cccc(C)c1NC(=O)c1ccc2c(c1)CCN2S(C)(=O)=O,-1.0%
O=C(NCc1ccccc1)c1cccc(COc2ccccc2Cl)c1,4.9%
O=C(NCc1ccccc1Cl)c1ccc(Cn2cc(C(F)(F)F)ccc2=O)cc1,-5.3%
O=C(COC(=O)c1ccc(S(=O)(=O)Nc2ccccc2)cc1)NCc1ccco1,-4.5%
COc1ccc(C(C)C)cc1S(=O)(=O)N1CCC(C(=O)NCc2cccnc2)CC1,-0.5%
Cc1ccc(C2C3=C(NCCN=C3c3ccccc3)C(=O)N2c2ccccc2)cc1 (centres undefined),-14.8%
O=S(=O)(NCc1ccccc1)c1ccc(F)cc1Br,8.5%&-10.5%
CCOC(=O)c1cnc(SC2CCc3ccccc3C2=O)nc1N (centres undefined),9.7%
Cc1ccc(NC(=O)c2cc3c([nH]c2=O)CC(C)(C)CC3=O)c(C)c1,-11.2%
CCN(CC)c1ccc(NC(=O)COC(=O)c2cccs2)cc1,-6.4%
O=C1N(c2ccccc2)C[C@@H]2C[C@@H](c3cccs3)N3CCC[C@@]123,-2.9%
Cc1ccsc1C(=O)N[C@@H](C)c1nnc2ccccn12,9.0%
COc1cc(NC(=O)c2ccccc2)c(OC)cc1NC(=O)CN1C(=O)NC2(CCCCC2C)C1=O (centres undefined),-7.6%
C=Cc1ccc(Cn2c(=O)n(CC3CCC(C(=O)NC(C)C)CC3)c(=O)c3sccc32)cc1 (centres undefined),-6.2%
Cc1ccc(C(=O)N2CCN(c3ccc(C(F)(F)F)cn3)CC2)o1,-15.3%
Cc1cc(C(=O)OCC(=O)Nc2c(Cl)cccc2C(F)(F)F)c(C)o1,-13.4%
O=C(/C=C/c1ccc(F)cc1)Nc1cc(S(=O)(=O)N2CCOCC2)ccc1N1CCCC1,-1.8%
Cc1ccccc1OCC(=O)N1CCC2(CC1)CC(=O)c1ccccc1O2,-11.1%
Cc1cc(C)n2nc(C(=O)N(C)c3c(N)n(Cc4ccccc4)c(=O)[nH]c3=O)nc2n1,-6.4%
O=C(CSc1nc2c(cnn2-c2ccc(F)cc2)c(=O)[nH]1)Nc1nccs1,-11.2%
O=C(O)c1ccccc1C(=O)c1ccc(N2CCCC2)c([N+](=O)[O-])c1,4.2%

Arranged by value in VDR inh (high to low): seven of the compounds above
structure,VDR inh
CCOC(=O)c1cnc(SC2CCc3ccccc3C2=O)nc1N (centres undefined),9.7%
CC(NC(=O)C1CCN(c2nc3ccccc3nc2C(F)(F)F)CC1)c1ccccc1 (centres undefined),-1.3%
CCCCn1c(SCC(=O)Nc2cc(C)on2)nc2cc(S(N)(=O)=O)ccc21,-1.8%
O=C1N(c2ccccc2)C[C@@H]2C[C@@H](c3cccs3)N3CCC[C@@]123,-2.9%
O=C(NCc1ccccc1Cl)c1ccc(Cn2cc(C(F)(F)F)ccc2=O)cc1,-5.3%
Cc1cc(C)n2nc(C(=O)N(C)c3c(N)n(Cc4ccccc4)c(=O)[nH]c3=O)nc2n1,-6.4%
O=C(CSc1nc2c(cnn2-c2ccc(F)cc2)c(=O)[nH]1)Nc1nccs1,-11.2%

Later entries.
smiles,VDR inh
C/C(Cl)=C\COc1cc(C)nc2c(Br)cccc12,-9.4%
COc1ccccc1NC(=O)CCn1c(=S)oc2ccccc21,-28.3%
CCC1(C)Cc2ccccc2-c2[nH]c(=S)[nH]c(=O)c21 (centres undefined),-3.9%
O=C(COc1ccc(Cl)cc1)Nc1ccc(NC(=O)c2ccco2)cc1,-12.3%
CCOC(=O)c1ccccc1NC(=O)COC(=O)CCNS(=O)(=O)c1cccs1,2.3%
Cc1cc(C(=O)CSc2nc3ccccc3n2C)c(C)n1C,7.4%
CCC1NC(C(=O)O)Cc2c1[nH]c1ccccc21 (centres undefined),-10.5%
COc1ccc(C2C(C(C)=O)=C(O)C(=O)N2C)c(OC)c1 (centres undefined),19.3%
CCOC(=O)c1cc2sc(C)cc2n1CC(=O)Nc1ccc2c(c1)OCCO2,29.7%
Cc1ccc(N2CC(NC(=O)c3ccc4c(c3)OCO4)CC2=O)cc1 (centres undefined),3.5%
Oc1c(C(c2ccccc2)N2CCN(c3ccccc3)CC2)sc2nc(-c3ccco3)nn12 (centres undefined),4.1%
NS(=O)(=O)c1ccc(N2CCN(C(=O)C3COc4ccccc4O3)CC2)nc1 (centres undefined),-1.9%
CCC(=O)Oc1ccc(-c2cnc3ccccc3n2)cc1,2.6%
CCOc1ccc(OCCOc2cccc(C(F)(F)F)c2)cc1,-3.0%
CNC(=O)COC(=O)/C=C/c1c(C)nn(-c2ccccc2)c1C,-5.7%
CN1CCN(C(=O)c2ccc(COc3ccc(C(C)(C)C)cc3)o2)CC1,3.2%
Cc1ccn(C(=O)c2cc3cc(Cl)ccc3oc2=O)n1,-15.7%
CN(c1ccccc1)S(=O)(=O)c1cccc(C(=O)OCC(=O)Nc2ccc3[nH]c(=O)[nH]c3c2)c1,-3.2%
Cn1c(Cc2ccccc2)nnc1SCC(=O)NC1CCCC1,10.6%
COCCn1c(C)cc(C(=O)CSc2nc3ccccc3c(=O)n2Cc2ccco2)c1C,-29.2%
CCOC(=O)c1sc2nc3c(cc2c1N)COC(C)(CC)C3 (centres undefined),13.3%
COc1ccc(-c2noc(N3CCC(C(=O)N4CCN(c5ccccc5F)CC4)CC3)n2)cc1,12.4%
COC(=O)N/N=C/c1ccc([N+](=O)[O-])o1,4.6%
O=c1[nH][nH]cc1C=Nc1ccccc1Cl,-20.6%
O=C(NC1C=CS(=O)(=O)C1)c1sc2ccccc2c1Cl (centres undefined),-3.3%

Some of the entries above in a different format.
CCC(=O)Oc1ccc(-c2cnc3ccccc3n2)cc1
  VDR inh: 2.6%
CCOc1ccc(OCCOc2cccc(C(F)(F)F)c2)cc1
  VDR inh: -3.0%

(list continues)
smiles,VDR inh
COC(=O)C1=C(C)NC(C)=C(C(=O)OCCSc2ccccc2)C1C (centres undefined),-0.6%&2.5%
CCOc1ccc(C2/C(=C(/O)c3ccc4c(c3)CC(C)O4)C(=O)C(=O)N2CCCn2ccnc2)cc1 (centres undefined),-4.7%
CCCC(C)c1nnc(NC(=O)C(=O)OCC)s1 (centres undefined),?
COc1ccc(CCN(C(=O)c2cccc(F)c2)C2CC(=O)N(c3ccc(OC)cc3)C2=O)cc1 (centres undefined),3.5%
Cc1ccc(-n2nnc3c(=O)n(CC(=O)N4CCC(C)CC4)cnc32)cc1,-1.9%
COc1cc(OC)cc(C(=O)N2CCN(Cc3ccccc3C(F)(F)F)CC2)c1,7.1%
CC(C)(C)NC(=O)COc1ccccc1C#N,0.6%
CN(C)/C=N/c1cc(=O)[nH]c(=O)n1CC1CC1,-2.5%
Cc1cc(C)cc(OCC(=O)N2CCc3ccccc3C2)c1,-9.4%
COc1ccccc1-c1cc2nc(C)c(CCC(=O)Nc3ccc(Br)c(C)c3)c(C)n2n1,0.7%
CCCCCSc1nc(N2CCOCC2)c2c(c1C#N)CC(C)(C)OC2,?
C=CCN(CC=C)C(=O)c1ccc2nc(Cc3ccc(OC)c(OC)c3)oc2c1,-3.6%
CC(=O)c1cn(CC(=O)Nc2c(C)cccc2C)c2ccccc12,26.2%
Cn1c(C2CC(=O)N(Cc3ccccc3)C2)nc2ccccc21 (centres undefined),11.9%
Cc1ccc(S(=O)(=O)N2CCN(CC(=O)Nc3ccc([N+](=O)[O-])cc3)CC2)cc1C,3.3%
O=C(CSc1n[nH]c(=O)[nH]c1=O)c1cccc([N+](=O)[O-])c1,-13.1%
CCOC(=O)c1cn(C2CC2)c2c(F)c(NCCCN(C)C)c(F)cc2c1=O,2.5%
CCCCCCNC(=O)n1cc(F)c(=O)[nH]c1=O,-4.8%
C[C@H](CO)N1C[C@H](C)[C@@H](CN(C)Cc2ccncc2)Oc2c(NC(=O)c3ccncc3)cccc2C1=O,13.2%

The list is partial (hit frequency here may not be typical).
